# High-throughput results (PubChem)
# CtBP-E1A inh – CtBP/E1A binding inhibition; AlphaScreen GST-E1A/His-CtBP binding, 1536-well; hits give low values; control for the full effect not named in the record; activity change, % (concentration not given with the values); 0.49% of 340,000 active; AID 651724; in the data active means activity change below about -65%; inconclusive means about -30% to -65%; inactive means above about -30%; further: on the % scale 0 is the no-effect control and ±100 the full control effect
#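 GST-E1A and His-tagged CtBP (125 nM each as 5X stock) were preincubated with pin-transferred compound for 2 h at 37 °C in the dark, then glutathione donor and nickel acceptor beads were added for 1 h before AlphaScreen reading.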
# TRPML1 blocker – blocks the human TRPML1 channel. TRPML1-inducible cells, Ca2+ dye fluorescence, FDSS; hits give low values; inhibition of EC80 agonist-evoked calcium signal. 0.02% of 390,000 active. Q9GZU1. activity change, negative = inhibition, % (no concentration beside the values); in the data active means activity change below about -50%; inconclusive means about -30% to -50%; inactive means above about -30%;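 further: stimulus is agonist 54-4 at its EC80 concentration; on the % scale 0 is the no-effect control and ±100 the full control effect; compound concentration not given in the record; the text of the record puts the active cut at -80%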
# Target sequence (Q9GZU1 whole entry, looked up): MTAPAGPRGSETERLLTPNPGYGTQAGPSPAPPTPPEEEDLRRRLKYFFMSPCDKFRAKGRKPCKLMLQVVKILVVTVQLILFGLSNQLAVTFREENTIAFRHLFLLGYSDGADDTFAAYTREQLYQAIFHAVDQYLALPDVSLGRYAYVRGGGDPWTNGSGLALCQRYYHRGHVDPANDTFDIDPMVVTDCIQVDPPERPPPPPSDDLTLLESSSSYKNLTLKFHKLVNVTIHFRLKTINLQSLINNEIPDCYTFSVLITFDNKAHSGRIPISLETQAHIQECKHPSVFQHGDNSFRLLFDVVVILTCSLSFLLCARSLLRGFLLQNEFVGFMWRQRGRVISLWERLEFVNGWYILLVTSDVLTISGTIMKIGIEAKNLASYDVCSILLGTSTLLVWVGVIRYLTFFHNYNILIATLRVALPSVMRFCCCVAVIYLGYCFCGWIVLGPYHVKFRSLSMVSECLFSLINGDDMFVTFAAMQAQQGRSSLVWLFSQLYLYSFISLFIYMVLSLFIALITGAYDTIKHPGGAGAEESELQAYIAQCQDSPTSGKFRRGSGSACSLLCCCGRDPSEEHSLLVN
#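 Tet-induced TRPML1-DL cells loaded with Ca8 no-wash calcium dye were read kinetically on FDSS. Compound addition was followed by EC80 agonist 54-4 (4 uM final); inhibition was read over 110 s.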
# TRPML1 ag – activates the human TRPML1 channel. AID 624414. Q9GZU1. TRPML1-expressing cells, Ca2+ dye fluorescence, FDSS; host cell line not named in the record; reference of the full effect not given here. activation, % (no concentration beside the values). 0.12% of 410,000 active; in the data active = activation above about 50%; inconclusive = about 30% to 50%; inactive = below about 30%; further: 0% is about no effect; the text of the record puts the active cut at 80%
#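 Kinetic FDSS Ca2+ read in Tet-induced TRPML1-DL cells (ABD Ca8 dye plus quencher, 45-90 min RT loading): baseline, then compound, then 110 s agonist window; EC80 agonist 54-4 at 4uM final added afterwards for a 110 s antagonist window.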
# Six1-Eya2 blk – blocks human Six1 binding to Eya2; Q15475+O00167; AlphaScreen GST-Six1/His-Eya2 binding, biochemical; hits give low values; control for the full effect not named in the record; activity change, % (concentration not given with the values); 0.56% of 360,000 active; in the data active = activity change below about -65%; inconclusive = about -30% to -65%; inactive = above about -30%; further: on the % scale 0 is the no-effect control and ±100 the full control effect
#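 Homogeneous AlphaScreen proximity assay pairing GST-Six1 with His-tagged Eya2 (added as 5X mix: 250 nM and 500 nM) in 50 mM Tris pH 8.0, 300 mM NaCl, 1 mM TCEP. Glutathione donor and nickel acceptor beads; 1 h, 37 °C, dark.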
# TRPV1 potentiator – enhances activation of the human vanilloid receptor TRPV1; 0.02% of 320,000 active; potentiation, % at 8.33 µM; Q8NER1; TRPV1-expressing cells, Fluo-8 calcium influx, capsaicin EC20 potentiation; host cell line not named in the record; control for the full effect not named in the record; active means potentiation above 80%; inconclusive means 30% to 80%; inactive means below 30%; further: 0% is about no effect
#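 Cells expressing TRPV1 were dye-loaded with Fluo-8 and read kinetically: 10 s baseline, 3 min after compound (agonist portion), then 2 min after EC20 capsaicin (allosteric enhancer portion). Calcium-bound dye fluorescence at 480/520 nm.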
# D2 potentiator – positive allosteric modulators of human D2 dopamine receptor; potentiation, % (concentration not given with the values); DiscoveRx D2 beta-arrestin cells, luminescence, 90 min; 100% = 57 uM dopamine signal; AID 624464; P14416; 0.23% of 360,000 active; active = potentiation of 50% or more; inconclusive = 30% to 50%; inactive = 30% or less;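 further: compound concentration not given in the record; tested on top of an EC20 dose of dopamine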
# Target sequence (P14416 whole entry, looked up): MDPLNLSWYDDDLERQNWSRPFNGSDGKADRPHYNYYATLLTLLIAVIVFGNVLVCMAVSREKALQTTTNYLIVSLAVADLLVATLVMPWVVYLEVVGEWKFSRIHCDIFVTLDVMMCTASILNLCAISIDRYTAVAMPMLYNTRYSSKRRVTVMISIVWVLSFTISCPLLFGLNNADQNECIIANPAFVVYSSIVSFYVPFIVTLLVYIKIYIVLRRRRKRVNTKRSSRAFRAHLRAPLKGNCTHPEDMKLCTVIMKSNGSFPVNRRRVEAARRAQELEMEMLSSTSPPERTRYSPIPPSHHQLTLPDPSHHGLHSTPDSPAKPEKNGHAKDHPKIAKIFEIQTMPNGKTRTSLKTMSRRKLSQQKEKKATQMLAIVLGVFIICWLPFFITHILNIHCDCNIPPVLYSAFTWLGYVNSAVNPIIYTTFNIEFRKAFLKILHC
#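 PathHunter beta-arrestin assay in DiscoveRx D2 cells. Compounds were added with an EC20 of dopamine (50 nM final) for 90 min at 37 deg C. Luminescence was read 1 h after detection reagent, with 57 uM dopamine as the EC100 control.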
# An asterisk follows results filed as active; u = inconclusive; x = no result given; & = joins results of further samples.
canonical_smiles	Six1-Eya2 blk	TRPV1 potentiator	D2 potentiator	TRPML1 ag	TRPML1 blocker	CtBP-E1A inh
Cc1ccccc1-c1nc(CS(=O)(=O)CC(=O)NCCCN2C(C)CCCC2C)c(C)o1 (configuration not stated)	5	2	-9	-0.2	17	-2
CC(C(=O)NCCS(=O)(=O)c1ccc(Cl)cc1)S(=O)(=O)c1ccccc1 (configuration not stated)	-3	8	-1	-0.5	-15	u
CC(C)CN1C(=O)/C(=C(/C#N)C(=O)NC2CCCCC2)c2ccccc21	3	-7	-3	2.5	-14	-1
Nc1nonc1-c1noc(-c2ccccc2Br)n1	0	11	-13	2.8	19	5
COc1ccc(NC(C)=O)cc1NC(C)c1nc2sc(C)c(C)c2c(=O)[nH]1 (configuration not stated)	-5	3	-10	0.2	6	19
Cc1cccc(-n2c(=O)c3ccccc3n3c(=S)[nH]nc23)c1C	2	6	-3	0.1	10	-2
CCCC[n+]1c(C)sc2ccc(C)cc21	0	17	-2	-0.3	-6	0
COc1cc(C2Nc3ccc4ncccc4c3C3=C2C(=O)CC(C)(C)C3)cc(OC)c1O (configuration not stated)	-4	0	12	-0.2	-12	-4
O=C(CS(=O)(=O)c1ccccc1)NCc1ccc(Cl)cc1	15	11	-9	0.5	5	11
CCc1ccc(NCCC(=O)c2ccc(Cl)cc2)cc1	-2	1	-1	0.9	-1	-4
c1ccc(-c2nc3cc4ccccc4cc3[nH]2)nc1	-23	3	-5	0.0	-3	-11
CCn1c(SCC(=O)N2CCCCCC2)nc2c([nH]c3ccccc32)c1=O	-4	-2	-13	-0.2	-14	-1
O=C(CN1CCN(c2ccccn2)CC1)NCc1cccs1	3	-15	-13	0.3	11	0
CCOC(=O)/C(C#N)=C/c1cc2cc(C)c(C)cc2nc1Cl	2	-8	0	0.3	10	7
COc1ccc(OC)c(NC(=O)c2cc(-c3cc(F)ccc3OCC3CCCO3)n[nH]2)c1 (configuration not stated)	-18	x	-13	-0.7	x	-12
Cc1c(C(=O)N2CCOCC2)c(S(=O)(=O)Nc2ccc(Br)cc2F)c(C)n1C	-12	8	-1	-0.9	0	-16
CC(C)N1C(=O)C2C(c3ccccc3O)NC(C)(C(=O)O)C2C1=O (configuration not stated)	0	-1	-4	-0.4	12	6
COc1cccc(-c2cnc3c(NC(C)=O)cc(-c4ccsc4)cn23)c1	-14	x	-8	-0.5	x	-10
O=C(Nc1cnn(Cc2ccc(F)cc2)c1)C(c1ccccc1)c1ccccc1	-11	3	1	1.5	-2	2
O=C(OCCN(C1=NS(=O)(=O)c2ccccc21)c1ccccc1Cl)c1ccc(Cl)cc1	-7	18	-15	0.8	-5	-9
O=C1CSC(c2ccccn2)N1c1ccc2ccccc2c1 (configuration not stated)	8	0	-2	-0.2	-11	-1
Cc1cc(C)cc(C(=O)Nc2c3c(nn2C(C)(C)C)CS(=O)(=O)C3)c1	-1	23	-10	0.0	3	-7
CC(=O)c1ccc2c(c1)C1C=CCC1C(c1ccncc1)N2 (configuration not stated)	-22	18	86*	-1.7	1	-23
COc1ccc2c(=O)c(-c3ccccc3)c(C)oc2c1	2	13	-11	1.6	20	-7
COc1cccc2c(Cl)c(CCCl)c(C)nc12	4	u	-10	0.2	-5	-1
CC(C)(C)c1ccc(N=C2SCC(=O)N2Cc2cccs2)cc1	3	5	-6	3.5	4	15
CN(CC(=O)Nc1ccccc1C(F)(F)F)CC(=O)N1CCCCCC1	-1	-5	-8	-0.6	6	5
COc1ccc(OC)c(NC(=O)Cn2c(=O)n(CC3CCCO3)c(=O)c3cc(OC)c(OC)cc32)c1 (configuration not stated)	6	u	-4	-1.3&-0.3	4&2	-12
COc1ccc(CNc2ncc(-c3ccc(F)cc3)n2C)c2ccccc12	-16	2	-15	-0.5	-4	-21
CC(=O)C1=C(O)C(=O)N(CCc2c[nH]c3ccccc23)C1c1ccccc1 (configuration not stated)	-2	-2	-7	-0.1	8	x
c1coc(CNCc2cccs2)c1	18	-13	1	-0.1	-3	1
Cc1ccc(S(=O)(=O)N(C)C)cc1NC(=O)COC(=O)CN1C(=O)c2ccccc2C1=O	4	4	-29	-0.6	27	x
COc1ccccc1NC(=O)NCC1(N(C)C)CCCCC1	8	-1	-16	-0.2	-7	19
CC(=O)NNc1ccc(C(F)(F)F)cc1[N+](=O)[O-]	1	-7	-3	-0.5	3	8
Cc1ccc(S(=O)(=O)N2CCN(C(=O)c3ccc(-n4cncn4)c([N+](=O)[O-])c3)CC2)cc1C	-13	6	-1	0.5	-11	-6
COC1=C/C(=C/c2c(N)n3nc(CC(=O)N4CCCCC4)sc3nc2=O)C=CC1=O	8	-7	-7	1.1	3	11
CC(C)(C)N(Cc1ccccc1)C(=O)COC(=O)c1ccc([N+](=O)[O-])o1	-7	0	1	-0.7	-12	5
O=C(N/N=C/c1ccco1)c1cc(-c2cccc3ccccc23)n[nH]1	-6	u	1	2.3	10	-12
COc1cc(/C=N/NC(N)=O)cc(Br)c1OCc1ccc(C)cc1	3	-14	-6	0.8	-8	-2
COc1cccc(CCOC(=O)c2c(-c3ccsc3)oc3c2C(OC(C)=O)CCC3)c1 (configuration not stated)	26	x	x	0.7	x	25
CCc1ccc2[nH]c(=O)c(CN(CCCN3CCOCC3)C(=O)Nc3ccccc3)cc2c1	-8	-9	-14	0.7	1	-9
CCOc1cc(C(c2c(C)[nH][nH]c2=O)c2c(C)[nH][nH]c2=O)ccc1OC(=O)c1cccc([N+](=O)[O-])c1	-18	-1	-2	2.9	-1	-15
N#Cc1ccccc1NC(=O)Nc1cccs1	0	7	-11	-0.2	-4	0
CC(=O)N1C[C@H]2CON(C)[C@H]2C[C@H]1c1ccc(-c2ccccc2)cc1	10	x	-1	-0.1	16	-4
O=C(c1cnccn1)N1CCc2c([nH]c3ccccc23)C1c1cccc(Cl)c1 (configuration not stated)	-14	18	-1	0.4	-4	-6
OC[C@@H]1CN(Cc2ccccc2)C[C@H](n2cnc3c(Nc4ccccc4)ncnc32)O1	3	x	6	-0.2	x	-21
CC1(C)Cc2[nH]c(=S)c(C#N)cc2CO1	-1	-10	-20	2.2	-5	-3
O=C(c1ccccc1)c1ccc(C(=O)N2CCN(c3ccc(F)cc3)CC2)o1	-11	-11	-19	3.3	25	-11
O=C(N/C(=C/c1cccc([N+](=O)[O-])c1)C(=O)N1CCCC1)c1ccccc1	-1	-21	-4	-0.7	18	-16
CON(C)C(=O)CCC1CCCN1C(=O)OC(C)(C)C (configuration not stated)	3	x	x	-0.7	-2	1

# Next compounds follow:
canonical_smiles	Six1-Eya2 blk	TRPV1 potentiator	D2 potentiator	TRPML1 ag	TRPML1 blocker	CtBP-E1A inh
O=C(O)c1ccccc1-c1ccccc1C(=O)Nc1ccc2c(c1)[nH]c(=O)c1ccccc12	-72*	-24	-4	-1.1	-15	-1
CCN(CC(=O)Nc1ccc(NC(C)=O)cc1)C(=O)/C=C/c1ccc(S(=O)(=O)N2CCCCCC2)cc1	-2	-6	15	-0.3	0	-5
O=C(Nc1nc(-c2ccc([N+](=O)[O-])cc2)cs1)c1c(F)cccc1F	5	1	-9	2.8	1	x
CC1CCCC(NC(=O)COC(=O)COc2ccc(Cl)cc2)C1C (configuration not stated)	5	22	-7	-0.3	-1	5
Cc1cc([N+](=O)[O-])cc(C)c1OCC(=O)N/N=C/c1ccc(OC(=O)c2ccccc2)cc1	-21	-17	-8	0.3	-4	-1
COC(=O)CC(=O)N1CCN(c2ccc(Cl)c(Cl)c2)CC1	7	3	-9	-0.1	1	3
COC(=O)c1cc(NC(=O)C23CCC(C)(C(=O)O2)C3(C)C)cc(C(=O)OC)c1 (configuration not stated)	2	8	7	-0.7	4	7
Cc1cccc2cc(/C=N/NC(=O)c3ccncc3)c(Cl)nc12	-9	-1	-3	2.5	-4	1
CCN(C[C@H]1N[C@@](Cc2ccccc2)(C(=O)OC)[C@H]2C(=O)N(Cc3ccccc3)C(=O)[C@@H]12)S(=O)(=O)c1ccc(F)cc1	-1	x	x	-0.5	0	-3
Cc1cc(C)c2cc(CN(Cc3ccco3)C(=O)NCc3ccccc3)c(=O)[nH]c2c1	8	-9	-10	3.0	-24	22
COc1cccc(C(O)c2ncc(-c3ccccc3Cl)[nH]2)c1 (configuration not stated)	-15	x	-3	-1.4	x	-4
Clc1ccc(-c2nnc3n2-c2ccccc2SC3)cc1	-1	14	-3	0.3	-1	-11
O=[N+]([O-])c1ccc(Nc2ccc(F)cc2)nc1	14	4	-3	-0.1	-3	11
N#CCCCN1C(=O)C(=C(C#N)C#N)c2ccccc21	-12	18	-5	5.0	17	-17
Cc1ccc(S(=O)(=O)N2CCC(C(=O)N3CCN(c4ccccn4)CC3)CC2)cc1C	2	x	-16	0.8	-3	2
COC(=O)c1ccc(CO/N=C2\CCCc3nonc32)cc1	3	u	-4	0.8	4	-6
CC1(C)CC(=O)C(C(O)c2cccc([N+](=O)[O-])c2)C(C)(C)N1 (configuration not stated)	0	13	-8	-0.3	-10	x
O=C(O)CCc1ccc(-c2cccs2)n1NC(=O)c1ccc(Cl)cc1Cl	-20	-3	-12	0.4	0	-25
COc1cc(C(=O)NNC(=O)c2ccc(F)cc2)ccc1OCC(=O)N1CCOCC1	13	-2	-2	0.5	-12	x
Cn1c(=O)n(C)c2cc(S(=O)(=O)Nc3cc(Cl)ccc3O)ccc21	-12	-5	16	2.0	22	-6

# An excerpt from above in order of length of the SMILES, falling:
canonical_smiles	Six1-Eya2 blk	TRPV1 potentiator	D2 potentiator	TRPML1 ag	TRPML1 blocker	CtBP-E1A inh
Cc1ccc(S(=O)(=O)N2CCC(C(=O)N3CCN(c4ccccn4)CC3)CC2)cc1C	2	x	-16	0.8	-3	2
COc1cc(C(=O)NNC(=O)c2ccc(F)cc2)ccc1OCC(=O)N1CCOCC1	13	-2	-2	0.5	-12	x
O=C(O)CCc1ccc(-c2cccs2)n1NC(=O)c1ccc(Cl)cc1Cl	-20	-3	-12	0.4	0	-25
COc1cccc(C(O)c2ncc(-c3ccccc3Cl)[nH]2)c1 (configuration not stated)	-15	x	-3	-1.4	x	-4
N#CCCCN1C(=O)C(=C(C#N)C#N)c2ccccc21	-12	18	-5	5.0	17	-17
O=[N+]([O-])c1ccc(Nc2ccc(F)cc2)nc1	14	4	-3	-0.1	-3	11

# Later entries
canonical_smiles	Six1-Eya2 blk	TRPV1 potentiator	D2 potentiator	TRPML1 ag	TRPML1 blocker	CtBP-E1A inh
Cc1noc(C)c1C(=O)OCC(=O)NC1CCCCC1C (configuration not stated)	16	8	-46	-0.2	-15	-4
COc1cccc(C(=O)NC2CCCc3ccccc32)c1 (configuration not stated)	-3	-4	-2	-0.2	2	-2
CCOc1ccccc1C=NNC(=O)CCCCC(=O)NN=Cc1ccccc1OCC	-2	x	-15	-0.2	13	-2
C=CCNCCCOc1ccc(C(C)(C)c2ccccc2)cc1	0	1	-33	0.4	-5	12
CN(Cc1ccccc1)C(=O)COC(=O)/C=C/c1ccc2c(c1)OCO2	-3	x	-11	-0.2	7	-7
